# FGF22 binding = shifts melting point of recombinant human FGF22; Q9HCT0; recombinant FGF22 thermal shift, SYPRO orange fluorescence; percent of sucrose octasulfate shift, DMSO zero; calls only at 9.99 µM; 340,000 compounds, 1.5% hits;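 active = melting point raised past a set limit in the mean and every replicate; inconclusive = no clear call; three in four hits are not shown here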
# Target sequence (Q9HCT0 whole entry, looked up): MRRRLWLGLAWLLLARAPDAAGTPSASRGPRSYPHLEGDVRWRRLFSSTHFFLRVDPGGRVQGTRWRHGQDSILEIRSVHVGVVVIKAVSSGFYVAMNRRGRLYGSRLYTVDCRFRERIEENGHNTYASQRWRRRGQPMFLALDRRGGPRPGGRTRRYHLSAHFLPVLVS
# Ecoli rRNA inh = inhibitors of bacterial rRNA selective over humanized ribosomes | E. coli WT GFP vs humanized-ribosome RFP mutants, fluorescence, 24 h; stronger effect = lower value; DMSO median 0, no signal -100 | GFP signal change (wild-type ribosome), % (test concentration not listed) | 350,000 compounds, 1.6% hits;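 active = significant combined selectivity score with lowered wild-type GFP, culture density cut under 30%, mutant RFP and density less affected; inactive = any of these conditions unmet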; also: one replicate is shown; some compounds called inactive have numbers as strong as hits
# MLL AF4-AF9 inh = inhibitors of human MLL-AF4/AF9 interaction. inhibition, % at 10 µM. 350,000 compounds, 0.47% hits. P42568. AID 651704. AlphaScreen, biotin-AF4 peptide binding to FLAG-AF9;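 active = every replicate reaching a set inhibition limit, whatever the replicate mean, cut at about 25% in these data; inconclusive = mean inhibition reaches that limit but some replicates miss it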;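 also: 0% = plate neutral control median and 100% = total signal loss; the record names both 10 and 1 µM as test concentration; the first replicate is given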
# Target sequence (P42568 whole entry, looked up): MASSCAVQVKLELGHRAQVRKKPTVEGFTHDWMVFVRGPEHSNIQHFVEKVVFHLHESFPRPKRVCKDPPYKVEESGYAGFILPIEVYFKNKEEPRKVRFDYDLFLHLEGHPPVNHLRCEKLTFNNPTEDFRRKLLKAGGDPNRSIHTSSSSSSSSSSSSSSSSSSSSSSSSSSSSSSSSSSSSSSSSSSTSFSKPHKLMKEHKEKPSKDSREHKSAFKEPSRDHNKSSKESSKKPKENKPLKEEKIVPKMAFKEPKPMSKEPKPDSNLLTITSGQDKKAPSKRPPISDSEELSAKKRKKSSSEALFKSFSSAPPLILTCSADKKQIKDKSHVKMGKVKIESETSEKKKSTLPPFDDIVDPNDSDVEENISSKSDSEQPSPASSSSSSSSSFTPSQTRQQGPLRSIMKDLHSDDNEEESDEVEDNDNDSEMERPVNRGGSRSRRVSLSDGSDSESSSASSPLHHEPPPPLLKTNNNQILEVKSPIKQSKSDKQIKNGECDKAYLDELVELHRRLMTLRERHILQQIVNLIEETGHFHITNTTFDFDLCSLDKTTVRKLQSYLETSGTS
# T cruzi inh = blocks replication of Trypanosoma cruzi. T. cruzi beta-gal in NIH3T3, luminescence, 90 h. inhibition, % (concentration not given with the values). 300,000 compounds, 1.4% hits. AID 1885;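 active = mean inhibition across valid replicates above about 55%, limit read from the data; inconclusive = mean below that limit but half or more replicates reach it; inactive = mean below it, under half of replicates reach it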;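 also: signal also drops with host cell toxicity which is not excluded here; 0% = plate median of DMSO wells and 100% = zero luminescence signal; higher percent means less beta-gal luminescence so fewer parasites; stock transfer was 50 nL into about 50 µL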
# RanGTP-Imp inh = disruptors of Ran-importin-beta complex formation – biochemical, FRET, CFP-Ran, YFP-importin-beta, homogeneous, primary screen | cell-free CFP-Ran/YFP-importin-beta FRET ratio | 300,000 compounds, 1.1% hits | inhibition, % (no concentration beside the values);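 active = most replicates above 15%; inconclusive = exactly half above 15%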;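 also: 0% = DMSO wells and 100% = Ran loaded with GDP instead of GTP; wells of about 40 µL received 100 nL stock; the first replicate is given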
# Beta apoptosis = beta cell apoptosis inhibition | INS-1E cytokine-induced death, ATP luminescence, 48 h; percent of positive-control rescue, neutral wells zero | protection from apoptosis, % (test concentration not listed) | 300,000 compounds, 0.8% hits | AID 435005;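 active = all replicates at 75% or more, or half of them and the mean; inconclusive = half reach 75% but not the mean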;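 also: 0% = cytokine-treated negative control wells and 100% = positive control rescue; higher means more ATP so stronger rescue from cytokine killing; wells of about 40 µL received 100 nL stock; the first replicate is given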
# Calb FLC = affects C. albicans growth with fluconazole. C. albicans CaCi-2 (fluconazole-resistant clinical isolate) + fluconazole, Alamar Blue growth, 48 h. growth inhibition, % (concentration not given with the values). 300,000 compounds, 0.57% hits. AID 1979;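 active = most replicates above 75%; inconclusive = exactly half above 75%; inactive = most below 75%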;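 also: all wells also contain fluconazole at 8 µg/ml as a sub-toxic cotreatment; 0% = median of DMSO wells and 100% = median of geldanamycin control wells; wells of about 8 µL received 7.5 nL stock; the first replicate is given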
# ALR inh = blocks human ALR sulfhydryl oxidase activity; inhibition, % (test concentration not listed); purified ALR, DTT oxidation, H2O2 HRP-luminol luminescence; P55789; 290,000 compounds, 3.8% hits;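 active = mean and each replicate at 75% or more; inconclusive = only one of the two met; inactive = neither met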;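 also: stock transfer was 7.5 nL into about 7.5 µL; 0% = neutral wells and 100% = wells with inactivated enzyme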
# Target sequence (P55789 whole entry, looked up): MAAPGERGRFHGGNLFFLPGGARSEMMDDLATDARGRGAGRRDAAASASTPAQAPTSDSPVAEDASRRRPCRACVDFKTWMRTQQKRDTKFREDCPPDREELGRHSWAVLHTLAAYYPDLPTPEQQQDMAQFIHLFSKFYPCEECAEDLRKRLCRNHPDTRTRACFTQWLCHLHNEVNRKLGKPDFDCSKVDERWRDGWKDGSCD
# Ecoli rRNA inh OD600 = second read-out of Ecoli rRNA inh, no call of its own (marks repeat the call); OD600 change, %; measured here: OD600 growth;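 optical density of the mix in the first replicate; 0 = DMSO median and -100 = no signal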
# Ecoli rRNA inh RFP = further read-out of Ecoli rRNA inh, marked with its call; RFP signal change, %; measured here: RFP humanized mutant strains;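 first replicate; 0 = DMSO median and -100 = no signal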
# * marks the source's active call; other numbers are inactive results; i = inactive; ? = inconclusive; nt = no result given; + = active, no number; & = joins results of further samples. This is a subset, so the mix of outcomes need not match the whole.
# The opening 2 compounds, to show the layout:
canonical_smiles	FGF22 binding	Ecoli rRNA inh	Ecoli rRNA inh OD600	Ecoli rRNA inh RFP	MLL AF4-AF9 inh	T cruzi inh	RanGTP-Imp inh	Beta apoptosis	Calb FLC	ALR inh
Cc1ccccc1CN(C)CC(=O)Nc1c(C)cccc1C(C)C	i	-28.9	-32.8	-12.7	-2.6	5.3	5.3	3.8	-5.6	-3.2
S=C(Nc1ccc(Cl)cc1)Nc1cccc2cnccc12	i	-53.5	-76.6	-16.3	8.8	25.1	9.5	91.1*	25.7	-13.4

# The whole of this part, repeating the preview:
canonical_smiles	FGF22 binding	Ecoli rRNA inh	Ecoli rRNA inh OD600	Ecoli rRNA inh RFP	MLL AF4-AF9 inh	T cruzi inh	RanGTP-Imp inh	Beta apoptosis	Calb FLC	ALR inh
Cc1ccccc1CN(C)CC(=O)Nc1c(C)cccc1C(C)C	i	-28.9	-32.8	-12.7	-2.6	5.3	5.3	3.8	-5.6	-3.2
S=C(Nc1ccc(Cl)cc1)Nc1cccc2cnccc12	i	-53.5	-76.6	-16.3	8.8	25.1	9.5	91.1*	25.7	-13.4
CCCCNS(=O)(=O)c1ccc2nc(-c3cccnc3)cc(C(=O)NCC(OC)OC)c2c1	i	5.2	15.5	-0.9	0.6	-1.9	-0.7	2.1	4.8	3.4
N#Cc1ccc(Sc2ccccn2)c([N+](=O)[O-])c1	i	nt	nt	nt	1.0	-4.4	-3.8	-2.0	-13.7	3.7
CCS(=O)(=O)N1CCN=C1SCc1ccc(F)cc1	i	12.8	0.5	-0.4	-0.1	0.3	0.9	3.1	-0.3	88.8*
Cc1cccc(NC(=O)c2c(C)cc(=O)oc2C)n1	nt	nt	nt	nt	nt	-0.2	0.0	nt	5.8	-3.4
CCOc1ccc(N(C(=O)CNS(=O)(=O)c2ccccc2)C(CC)C(=O)NCc2ccco2)cc1 (centres undefined)	i	-5.8	-9.9	6.6	-0.4	-3.8	-1.9	4.1	14.1	-2.2
CCOC(=O)N1CCC(Nc2c(NCCCN3CCN(c4ccc(OC)cc4)CC3)c(=O)c2=O)CC1	i	5.5	12.2	-3.6	22.0	-8.5	0.0	1.1	-3.0	71.5
O=C1Nc2ccccc2C12OC1CCCCC1O2 (centres undefined)	nt	nt	nt	nt	nt	-16.1	-6.8	-2.7	?	1.0
Cc1cc(=O)oc2c(CN3CCN(CCO)CC3)c(O)ccc12	i	8.2	10.8	-1.2	-3.1	-5.7	-0.1	-1.8	-0.9	-3.5
CCCCn1c(N)c(N(CC(C)C)C(=O)c2ccco2)c(=O)[nH]c1=O	nt	12.3	10.5	-0.1	0.5	-5.3	1.3	-1.6	-6.6	4.1
O=C(COc1ccc2c(c1)CCC2)NCc1ccc(Cl)cc1	i	-30.3*	-21.1*	-2.5*	-5.8	9.3	-0.4	-18.2	29.0	-27.2
Cc1cccc2cc(C#N)c(SCCN3CCCCC3)nc12	nt	nt	nt	nt	nt	35.6	2.9	36.7	-5.9	-6.9
Cc1c(C(c2ccccc2Br)c2c(C)n(C)n(-c3ccccc3)c2=O)c(=O)n(-c2ccccc2)n1C	i	3.5	-6.2	0.4	2.7	7.9	5.2	-4.3	60.9	-15.7
Cc1cccc(Cc2nnc(CCC(=O)N(C)CCc3ccccc3)o2)c1	i	6.7	7.4	5.0	-3.1	-2.4	2.0	0.7	-6.9	nt
CN(C)CCNC(=O)/C=C/c1cn(-c2ccccc2)nc1-c1cc2ccccc2oc1=O	i	-0.6	5.3	7.0	-1.9	-15.2	1.5	6.8	-0.9	-6.3
Cc1cc(-c2ccc(C)c(S(=O)(=O)NCCN3CCC(C)CC3)c2)on1	i	6.7	0.1	-1.1	1.6	12.2	1.0	-2.6	-44.9	-1.6
OCC[C@@H]1C[C@H](O)[C@@H](O)[C@]2(CCCCO2)O1	i	11.0	14.5	-1.8	-8.0	-25.8	-3.5	-8.1	-1.9	8.6
CSCC[C@H](NC(=O)CCNC(C)=O)c1nc2ccccc2[nH]1	nt	nt	nt	nt	nt	-16.0	2.7	-0.9	-0.7	-17.9
Fc1ccc(C2C3=C(Nc4ncnn42)c2ccccc2OC3c2ccncc2)cc1 (centres undefined)	nt	nt	nt	nt	nt	9.0	3.5	2.6	-6.3	-12.4
CC(NC(=O)C1C2C=CC(C2)C1C(=O)O)c1ccccc1 (centres undefined)	nt	nt	nt	nt	nt	-4.0	-2.6	-10.9	-4.6	-23.3
COC(=O)[C@H](CC(C)C)NC(=O)NC1CCCCC1C (some centres undefined)	nt	nt	nt	nt	nt	-5.1	-3.0	5.8	12.1	-3.2
COc1ccc(CNC(=O)CSc2nnc3c(n2)[nH]c2ccc(F)cc23)cc1	i	4.8	8.9	-1.8	-16.1	-3.1	-3.7	-2.1	-3.6	-1.0
CC(C)c1ccc(CN(C(=O)c2ccco2)C2CCS(=O)(=O)C2)cc1 (centres undefined)	i	-2.0	-6.5	1.0	0.7	-4.5	1.5	-4.5	-2.6	-4.2
COc1cc(N/C(=N/S(=O)(=O)c2ccccc2)c2ccccc2)ncn1	nt	nt	nt	nt	nt	-22.9	-0.1	1.2	9.0	-17.5
Oc1ccccc1-c1nc(NCC2CCCO2)c2ccccc2n1 (centres undefined)	nt	nt	nt	nt	nt	27.5	-3.0	-6.4	24.4	-2.7
COc1cc(NC(=O)Cn2nnc(-c3ccccc3N)n2)cc(OC)c1	nt	nt	nt	nt	nt	15.7	-0.8	-4.6	-0.5	8.2
CCn1c(C)cc(/C=C2\NC(=O)N(CC(=O)Nc3ccc(F)cc3)C2=O)c1C	i	10.2	2.7	-0.4	-3.1	-1.0	-2.0	-2.6	-3.9	-2.7
COC(=O)c1ccc(NC(=O)C2CC(=O)N(c3cc(C)ccc3C)C2)cc1 (centres undefined)	nt	nt	nt	nt	nt	-1.7	-0.4	-7.3	-6.2	-3.4
O=C(CCCNS(=O)(=O)c1cccc2nsnc12)NCc1ccccc1	nt	nt	nt	nt	nt	2.4	-1.0	4.4	-10.9	-38.2

# Next section
canonical_smiles	FGF22 binding	Ecoli rRNA inh	Ecoli rRNA inh OD600	Ecoli rRNA inh RFP	MLL AF4-AF9 inh	T cruzi inh	RanGTP-Imp inh	Beta apoptosis	Calb FLC	ALR inh
COc1ccc(S(=O)(=O)N(NC2=NS(=O)(=O)c3ccccc32)C(=O)C(C)C)cc1	+	2.4	13.4	-4.5	-15.0	-10.8	-0.9	-6.0	-13.2	-8.2
O=C(COC(=O)c1ccncc1)Nc1cccc(Cl)c1	nt	nt	nt	nt	nt	nt	-2.6	-1.2	-7.5	7.4
Cc1cc(NC(=O)CN2C(=O)NC(C)(c3ccccc3)C2=O)no1 (centres undefined)	nt	nt	nt	nt	nt	1.7	1.5	-7.5	2.5	-2.7
CC1CCC(NC(=O)C2c3ccccc3C(=O)N2Cc2ccc3c(c2)OCO3)CC1 (centres undefined)	nt	12.5	6.9	-0.4	-0.9	-2.4	7.2	5.0	5.7	-1.9
O=[N+]([O-])c1ccccc1NCc1ccc(Cl)cc1	nt	nt	nt	nt	nt	-12.1	-7.6	1.0	7.5	9.8
CN(Cc1ccco1)S(=O)(=O)c1nnc(NC(=O)c2ccc(F)cc2)s1	i	-7.2	3.4	-2.5	0.3	-0.1	4.3	22.5	-6.1	-6.8
Cn1c(SCc2ccccc2Cl)nnc1-c1cnccn1	nt	nt	nt	nt	nt	2.3	-2.8	0.9	1.0	-4.7
Cc1cccc(NC(=S)Nc2cccc(C)n2)n1	i	2.0	3.8	-0.4	-5.3	-16.2	-1.1	3.8	2.2	-1.3
CCOC(=O)c1c(NC(=O)c2nn(CC)cc2Br)c(C#N)nn1-c1ccccc1	nt	nt	nt	nt	nt	34.2	?	11.8	8.2	2.3
CC(C)(C)OC(=O)N1CCN(c2ccc(CNC(=O)c3ccc(Cl)cc3)cc2)CC1	nt	nt	nt	nt	nt	29.1	3.2	nt	3.0	-8.0
O=C(Nc1c2c(nn1-c1ccccc1)CS(=O)C2)c1ccc2c(c1)OCO2 (centres undefined)	i	7.2	8.9	-0.1	-0.4	-12.2	-0.2	0.3	-5.2	-13.6
COc1ccc(N(CC(=O)Nc2ccc(C)c(C)c2)S(=O)(=O)c2c(C)noc2C)cc1	i	-8.2	-11.2	-1.0	-8.0	12.9	?	16.4	5.0	-28.4
CN1C=CC=C/C1=C1\SC(=S)N(c2ccccc2)C1=O	nt	nt	nt	nt	nt	6.8	-1.9	4.9	-24.4	98.8*
CCOCCn1c(CCCO)nc2ccccc21	nt	nt	nt	nt	nt	10.7	3.7	-1.0	-9.3	-4.4
C(=C\c1nc(-c2ccncc2)no1)/c1ccccc1	i	-15.4	-16.6	-13.8	7.9	-5.2	1.0	-2.4	-11.0	50.1
CCOC(=O)C(CCCP(=O)(c1ccccc1)c1ccccc1)(NC(C)=O)C(=O)OCC	i	10.2	8.9	-1.8	-15.1	-31.3	0.2	-3.3	2.4	nt
COc1cc(C2C(C(=O)c3ccco3)=C(O)C(=O)N2c2cc(C)on2)cc(Br)c1O (centres undefined)	nt	nt	nt	nt	nt	1.6	0.6	-8.6	17.3	37.6
O=S(=O)(NCc1csc(-c2cccnc2)n1)c1ccc(Br)cc1	i	-0.3	0.5	2.7	-1.3	18.6	2.0	3.4	-4.4	-21.3
CC[C@@]1(c2ccccc2OC)ON(c2ccccc2C(F)(F)F)C1=O	i	14.3	9.2	0.8	-12.7	nt	nt	-16.3	nt	4.3
CC1(C)CC(=O)C/C(=N/NC(=O)c2ccc(-c3ccccc3)cc2)C1	i	-0.6	-0.2	0.5	0.3	-5.8	24.3*	2.6	-22.0	0.0
O=C(CN1C(=O)NC2(CCCC2)C1=O)Nc1ccc(F)c(Cl)c1	i	1.1	1.9	-0.4	2.7	-1.3	7.1	-3.9	-2.0	-1.3
COc1cc(CNCCc2ccc(S(N)(=O)=O)cc2)ccc1OCC(=O)NC(C)(C)C	nt	nt	nt	nt	nt	8.4	-2.3	nt	?	-1.6
Cc1ccc(-c2nnc(NC(=O)c3ccco3)s2)cc1	i	4.2	7.0	0.8	-0.9	-36.3	-0.4	-2.0	21.7	nt
O=S(=O)(/N=C(/Nc1cc(N2CCOCC2)ncn1)c1ccc(F)cc1)c1ccccc1	i	13.2&10.5	13.9&6.4	0.1&-3.2	-1.7&12.7	-2.9	-0.5	2.9	-8.9	-12.0
Cc1ccc(N(C)S(=O)(=O)c2cc3c(cc2C)NC(=O)CO3)cc1	i	-2.0	1.8	-1.8	-2.1	3.7	?	-3.1	-6.2	nt
COC(=O)c1cc(C(=O)OC)n(Cc2ccc(Br)cc2)n1	nt	nt	nt	nt	nt	-4.8	-0.8	1.5	-5.2	-1.9
CCNC(=S)N1CCn2c(nc3ccccc32)C1	nt	nt	nt	nt	nt	-10.0	2.7	-17.4	11.8	6.3

# Compound activity as filed in PubChem BioAssay.
